Tg IFNy HTS: blocks Toxoplasma gondii growth in the presence of IFN-gamma; Toxoplasma gondii growth in IFN-gamma-treated host cells; stronger effect = lower value; reference of the scale not given here; activity change, negative = inhibition, %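 (about 20 µM by stock and volumes)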; 3.8% of 69,000 active; AID 1259416;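 active = below -70%; inconclusive = fit judged invalid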;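 note: host cells are HeLa cells infected with Toxoplasma gondii; parasite growth read as luciferase light; one replicate is shown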
* marks the source's active call; other numbers are inactive results; u = inconclusive; & = joins results of further samples. This is a subset, so the mix of outcomes need not match the whole.

SMILES	Tg IFNy HTS
COC(=O)CCC(C)[C@H]1CCC2C3C(C[C@H](O)[C@@]21C)[C@@]1(C)CC[C@@H](O)CC1C[C@H]3O (stereo partly specified)	-67.3
COc1cccc(S(=O)(=O)N2CCCC3(CN(C(C)=O)CCO3)C2)c1 (stereo unspecified)	11.7
CNC(=O)[C@H]1CC2CN(Cc3ccc4c(c3)OCO4)CC2N1C (stereo partly specified)	-48.5
C[C@H]1CN([C@@H](C)CO)C(=O)Cc2cc(NS(=O)(=O)c3ccc(F)cc3)ccc2O[C@H]1CN(C)Cc1ccncc1	48.6
Cc1cc(=O)[nH]c(C)c1NC(=O)c1cccc(CN2CCN(CCO)CC2)c1	6.0
Cc1ccc(OCCN2CCOCC2)c(NC(=O)c2cc3cc(C)ccc3n2C)c1	-14.2
COc1ccc2c3c(n(C)c2c1)[C@H](CO)N(C(=O)c1ccc(F)cc1)CC31CN(CC2CCOCC2)C1	6.7
C[C@H]1CC2C([C@@H](O)C[C@@]3(C)C2CC[C@]3(O)C(=O)COC(=O)CCC(=O)O)[C@@]2(C)C=CC(=O)C=C12 (stereo partly specified)	7.7&-1.2
CC(C)CNC(=O)[C@H]1C[C@H]2CN(Cc3cccc(Cl)c3)C[C@H]1O2	-24.4
CC(C)Oc1ccc2c(=O)c3cc(C(=O)O)ccc3oc2c1	7.6&175.4

By substructure, the compounds so far containing nitrogen in an aromatic ring
SMILES	Tg IFNy HTS
C[C@H]1CN([C@@H](C)CO)C(=O)Cc2cc(NS(=O)(=O)c3ccc(F)cc3)ccc2O[C@H]1CN(C)Cc1ccncc1	48.6
Cc1cc(=O)[nH]c(C)c1NC(=O)c1cccc(CN2CCN(CCO)CC2)c1	6.0
Cc1ccc(OCCN2CCOCC2)c(NC(=O)c2cc3cc(C)ccc3n2C)c1	-14.2
COc1ccc2c3c(n(C)c2c1)[C@H](CO)N(C(=O)c1ccc(F)cc1)CC31CN(CC2CCOCC2)C1	6.7

The listing continues.
SMILES	Tg IFNy HTS
COc1cccc(C(=O)N2CCN(S(=O)(=O)NCc3ccccc3)CC2)c1	4.9
C[C@@H]1CN([C@H](C)CO)C(=O)c2ccccc2-c2ccccc2CO[C@H]1CN(C)C(=O)CCC(F)(F)F	72.1
Cc1cc(C2CCCN2C(=O)Cn2nc(C(F)(F)F)cc2C)on1 (stereo unspecified)	0.2
O=C(Nc1cnc2n1CCCC2)c1cc(-c2ccccc2)on1	15.1
CC(C)c1ccc(NC(=O)Cn2ncc3c(N4CCCC4)ncnc32)cc1	-11.2
CCc1nnc(NS(=O)(=O)c2ccc(NC(=S)NC(=O)c3ccco3)cc2)s1	-17.1
CCCNC(=O)N1C[C@H]2[C@@H](c3ccccc31)[C@@H](CO)N2Cc1cccc(OC)c1	5.8
Cc1nc(CN2CC3(CCN(c4ncccn4)CC3)OCC2=O)cs1	7.2
CO[C@H]1CN(C)C(=O)c2cc(NS(=O)(=O)CC(F)(F)F)ccc2OC[C@H](C)NC[C@H]1C	227.1
COc1ccccc1C(=O)N1CCC2(CC1)Nc1ccc(C)c(C)c1-n1cccc12	27.2
CC(C)CN1CCS(=O)(=O)[C@H]2CCN(S(=O)(=O)N(C)C)CC[C@@H]21	-6.0
c1ccc(-c2c3c(nc4ccccc24)-c2ccccc2C3)cc1	-54.7
CCOC(=O)N1CCC(N[C@H]2COC[C@@H]2OCC)CC1	-52.7
O=C(OCC#CCSc1nnnn1-c1ccc(Cl)cc1)c1ccco1	-16.6
Cc1ccccc1S(=O)(=O)N1C[C@H](O)COC[C@@H]2O[C@@H](CC(=O)N3CCCCC3)CC[C@H]21	-17.5
NCC[C@H]1CC[C@@H](NC(=O)Cc2ccncc2)[C@H](CO)O1	26.0
C[C@H](O)[C@H](O)[C@H]1CNc2nc(N)[nH]c(=O)c2N1	18.3
O=C(OCCOCCO)c1ccccc1Nc1cccc(C(F)(F)F)c1	38.7
Cc1nnc(NCc2ccccc2)n(N)c1=O	18.5
COCC(=O)Nc1ccc2c(c1)C(=O)N(C)[C@@H]1CC[C@H](CC(=O)NCCCN(C)C)O[C@H]1CO2	37.3
CN(Cc1ccccc1)Cc1cc(C(=O)N2CCN(C)C(=O)C2)no1	8.4
CN(C)CC(=O)N1[C@H](CO)[C@@H](c2ccccc2)C12CN(C(=O)c1ccc(F)cc1)C2	-22.0
CN(C)CCN1CCO[C@H]2CN(C(=O)c3cccn3C)C[C@@H]21	11.3
Fc1cccc(N2CCCC3(C2)CN(c2nncs2)CCO3)c1 (stereo unspecified)	35.2
Cc1ccc(S(=O)(=O)N2CSC[C@@H]2C(=O)NCCc2csc(-c3ccccc3)n2)cc1C	-67.2
Cc1ccc(CN2C(=O)CCC23CCC(NC2CCOC2)CC3)cc1 (stereo unspecified)	1.3
CN(C)C(=O)c1ccc(-c2ccc3c(c2)[C@@H]2[C@@H](CCN2C(=O)C2CCCC2)[C@H](CO)N3C)cc1	-56.1
CN(C)c1ncnc2c1CCN(CC1CCC1)CC2	2.0
C/C=C/c1ccc2c(c1)[C@@H]1[C@@H](CCN1C(=O)C1CCCC1)[C@H](CO)N2	1.7
Cc1cc(=O)oc2cc(OCC(O)Cn3cnc4ccccc43)ccc12 (stereo unspecified)	-17.8
CSc1ccc(Cl)c(C(=O)Nc2ccc(-c3nc(Cn4cccn4)c(C)o3)cc2)c1	-92.9*
Cc1nnsc1C(=O)N1CCCC(c2ccc(C(=O)Nc3ccc(F)cc3)cn2)C1 (stereo unspecified)	5.7
O=C(NCCCn1ccnc1)c1cc(N2CC[C@@H]3CCCC[C@H]3C2)ccn1	-24.0
CCCN1[C@@H]2c3ccc(-c4ccncc4)c(=O)n3C[C@@H]2[C@@H](CO)[C@@H]1C(=O)NCCCN1CCOCC1	1.9
CO[C@@H](CN(C)S(=O)(=O)c1cn(C)cn1)[C@@H](C)CN(C(=O)Nc1ccc(C(F)(F)F)cc1)[C@@H](C)CO	-38.3
CCCC(=O)Nc1cc(C(=O)NC(C)Cc2ccncc2)ccc1C (stereo unspecified)	-1.2
CC(C)NC(=O)N[C@H]1CC[C@@H](CC(=O)NCCCN(C)C)O[C@H]1CO	85.6
O=C(NCC1COc2ccccc2O1)Nc1csc2ccccc12 (stereo unspecified)	-90.2*
CO[C@H]1CC[C@H]2CCN(C)C(=O)CCCN(C)C(=O)c3cc(C#N)ccc3OC[C@@H]1O2	-55.3
COc1cccc(NC(=O)N2[C@H](CO)[C@@H](c3ccccc3)[C@H]2CNCC(C)C)c1	20.0
COc1ccccc1NC(=O)N1CCCCN2[C@@H](CO)[C@H](c3ccc(-c4cccc(C#N)c4)cc3)[C@@H]2C1	-15.5
O=C(NCc1nc(C2CCCCC2)no1)c1cccc2ccnn12	1.4
NC1=Nc2ccc(Cl)cc2C1(O)c1ccccc1 (stereo unspecified)	-96.7*
CCN1CCCC1CN(Cc1ccc(NC(C)=O)cc1)Cc1ccccn1 (stereo unspecified)	24.4
Cc1ccc(C)c(CN2CCC3(CC2)N=C(c2ccc(Br)cc2)C(=O)N3)c1	40.2
O=C(c1ccccc1F)N1C[C@@H]2[C@H](c3ccccc31)[C@@H](CO)N2Cc1ccc2c(c1)OCO2	-9.0
c1ccc(-c2cc(CNc3ccccc3N3CCOCC3)c3nnnn3c2)cc1	19.8
CC(C)C(C)N(CCn1c(=O)oc2ccccc21)Cc1ccco1 (stereo unspecified)	-2.8
CCCc1cc(Cn2ccnc2-c2nccn2C)on1	6.6
Cc1cnn(Cc2ccccc2Cl)c1NC(=O)c1ncc(F)cc1F	23.2

An excerpt of these results, with bars between the fields:
smiles | Tg IFNy HTS
CO[C@H]1CC[C@H]2CCN(C)C(=O)CCCN(C)C(=O)c3cc(C#N)ccc3OC[C@@H]1O2 | -55.3
COc1cccc(NC(=O)N2[C@H](CO)[C@@H](c3ccccc3)[C@H]2CNCC(C)C)c1 | 20.0

Going on with the list.
SMILES	Tg IFNy HTS
O=S(=O)(c1ccccc1)N1CCC2(CCCN2Cc2ccccc2F)C1 (stereo unspecified)	-9.4
COc1ccc(CN2CCn3cc(CNC(=O)C4CCC4)nc3C2)cc1	-3.2
CCOc1ccc(CN2CCCn3cncc3C2)cc1CO	-0.3
CN(C)CCOCc1cncc2c1CCN(C(=O)C1CCOCC1)C2	22.0
c1ccc(CSc2nnc3c(n2)[nH]c2ccccc23)cc1	-68.0
Cc1nc2sc(C(=O)N3CCC4(CCCO4)CC3)c(C)c2c(=O)[nH]1	-5.4
Cc1ccc(CN(C)C(=O)[C@@H](O)Cc2ccccc2)o1	-4.0
COCCCn1ccnc1-c1nccn1C	4.5
C[C@@H]1CCCCO[C@H](CN(C)C(=O)NC2CCCCC2)[C@@H](C)CN([C@@H](C)CO)C(=O)c2cc(N(C)C)ccc2O1	318.5
CSc1nc2ccc(NC(=O)c3ccc4snnc4c3)cc2s1	-33.7
COc1ccc2c3c(n(C)c2c1)[C@@H](CO)N(S(C)(=O)=O)CC31CCN(Cc2nccs2)CC1	94.9
O=S1(=O)[C@@H]2CCNCC[C@H]2CN1Cc1ccccc1	-22.3
Cc1noc([C@H]2COC[C@@H]3CN(C(=O)Cc4ccc(F)cc4)C[C@@H]32)n1	-7.7
CC(C)C(=O)N1CCC2(CC1)Nc1ccc(Cl)cc1-n1cccc12	45.4
CN1C(=O)CCc2cc(NC(=O)Cc3cccs3)ccc21	-45.6
Cc1ccc2[nH]c(=O)cc(C(=O)NCCN3CCCCC3CO)c2c1 (stereo unspecified)	-26.9
CC(NC(=O)c1n[nH]c2c1CCCCCC2)C1CC2CCC1C2 (stereo unspecified)	-66.8
COc1ccccc1-c1nc(Cn2ccn3nc(-c4ccc(C)cc4)cc3c2=O)c(C)o1	58.4
COCc1ccc2ccccc2c1-c1ccc(C(=O)N(C)C)cc1	-0.1
CN(C)CCN1CCO[C@H]2CN(C(=O)N(C)C)C[C@@H]21	-0.9

Random excerpt: 4 records from the list, in no set order.
SMILES	Tg IFNy HTS
Cc1ccc2[nH]c(=O)cc(C(=O)NCCN3CCCCC3CO)c2c1 (stereo unspecified)	-26.9
CN(C)CCN1CCO[C@H]2CN(C(=O)N(C)C)C[C@@H]21	-0.9
COc1ccccc1-c1nc(Cn2ccn3nc(-c4ccc(C)cc4)cc3c2=O)c(C)o1	58.4
CC(C)C(=O)N1CCC2(CC1)Nc1ccc(Cl)cc1-n1cccc12	45.4

(more compounds)
SMILES	Tg IFNy HTS
CCN(Cc1ccccc1)C(=O)Cn1c(=O)n(C)c2cnc(-c3ccccc3)nc21	13.2
CCC(c1cccnc1)N(C)Cc1ccc(S(C)(=O)=O)cc1 (stereo unspecified)	-0.3
CO[C@@H]1CN(C)C(=O)c2cc(NC(=O)c3nc4ccccc4s3)ccc2OC[C@H](C)NC[C@H]1C	-91.8*
CCOC(=O)c1c(C)n(-c2ccc(N(C)C)cc2)c2ccc(OC)cc12	-43.4
COc1cc(N2CC[C@H]3[C@@H]2CCN3C(=O)c2ccco2)ncn1	-12.2
NC(=O)NCC(=O)N1CCOC(Cc2ccccc2Cl)C1 (stereo unspecified)	0.8
O=C1CC2(CCN(C(=O)c3cc(C(F)(F)F)ccc3Cl)CC2)CN1	55.2
CN1C(=O)c2cc(NC(=O)C3CCOCC3)ccc2OC[C@@H]2O[C@@H](CC(=O)NCC3CCCCC3)CC[C@H]21	9.0
Cc1nnnn1-c1cccc(C(=O)NC(C)CCc2ccccc2Cl)c1 (stereo unspecified)	-8.4
CCn1c(C2CCN(CC3CCN(CCOC)CC3)CC2)nn(C)c1=O	2.3
Cc1oc(C2CCN(S(=O)(=O)c3ccc(F)c(F)c3)CC2)nc1C(=O)N(C)C	13.9
Cc1cccc(CN2CCO[C@H]3[C@H]2CC[C@H]3OCc2cccnc2)n1	-5.7
CN(C)c1ccc(C(=O)c2ccccc2)cc1	12.9
O=C(Nc1ccc(OC(F)(F)F)cc1)Nc1cc(-c2ccco2)[nH]n1	-6.2
CC(C)COC(=O)N(C)C[C@@H]1OCc2ccccc2-c2ccccc2C(=O)N([C@H](C)CO)C[C@@H]1C	-22.2
C[C@@H]1CCCCO[C@@H](CN(C)C(=O)c2ccncc2)[C@@H](C)CN([C@H](C)CO)C(=O)c2cc(NS(=O)(=O)c3cccs3)ccc2O1	11.8
CN(C)C(=O)[C@@H]1[C@@H](CO)[C@@H]2Cn3c(cccc3=O)[C@H]1N2CC1CCOCC1	3.4
Cc1cc(Nc2nc(N[C@@H](C)c3ccc(F)cc3)c(C#N)cc2F)n[nH]1	-75.2*
O=C(Cn1c(=O)cc(C(=O)N2CCCC2)c2ccccc21)Nc1ccc(Br)cc1F	11.6
O=C(c1cc2cccnc2n(Cc2ccc(F)cc2)c1=O)N1CCN(c2ccccc2F)CC1	u
COc1ccc(NC(=O)c2ccc(OC(=O)c3cccs3)cc2)cc1	205.1
COc1cc(C(=O)NC(C)c2n[nH]c(C)n2)c2ccccc2n1 (stereo unspecified)	-34.3
Cc1ccc(C)c(NC(=O)Cn2ncc3c(N4CCN(c5ccccc5)CC4)ncnc32)c1	-39.0
CC1CCN(S(=O)(=O)c2ccc3c(ccc(=O)n3CC(=O)NCc3ccc4c(c3)OCO4)c2)CC1	-47.1
C=CCN(Cc1ccccc1OC)C(=O)c1ccoc1C	-46.7
CC(C)(C)[S@](=O)N1Cc2cc(C(=O)N3CCc4ccccc4C3)nc(-c3cccc(-c4cncnc4)c3)c2[C@@H]1CCO	18.9
COc1ccc(-c2nc(CN(c3ccc(OC)cc3)S(=O)(=O)c3ccccc3)c(C)o2)cc1	2.8
O=C(Cn1ncc2c(N3CCCCCC3)ncnc21)NCc1ccc(C(F)(F)F)cc1	-81.9*
CCN1c2cc(C)ccc2-n2cccc2C12CCN(C(=O)Nc1cc(Cl)ccc1OC)CC2	-115.5*
c1ccc2c(c1)ccn2CCCNC1CCCNC1 (stereo unspecified)	-2.9
CC1Cc2ccccc2N1C(=O)CCCNC(=O)c1ccc(=O)n(C)c1 (stereo unspecified)	-0.7
Cc1cc(C)n(C)c(=O)c1C(=O)N1CCN(C(=O)C2CCCO2)CC1 (stereo unspecified)	-2.7
COC1C2CCC1N(S(=O)(=O)c1ccccc1)CCO2 (stereo unspecified)	-59.6
COCC1(C(=O)NCc2ccc(-c3ccccn3)s2)CCC1	2.1
COc1cccc2c1OCC(C(=O)NC1CCC(n3cnnc3)CC1)C2 (stereo unspecified)	39.7
CN(Cc1ccc(-n2cccn2)cc1)Cc1cccc2nonc12	11.0
CC(Cc1cccs1)Nc1ccc(-c2nccn2C)nn1 (stereo unspecified)	83.0
CCn1c(C2CCN(C(=O)CCn3nnc4ccccc43)CC2)nn(C)c1=O	-1.1

Screening results (PubChem)
